# VDR inhibitor: blocks the human vitamin D receptor; P11473; VDR-SRC2-3 peptide fluorescence polarization, 2 h; Potency, µM, without a hit: max response, negative = inhibition, most hits filed as inhibitors; actives 0.93% (n = 400,000); AID 504847; active means well fitted inhibition curve with a large enough effect; inconclusive means small, poorly fitted or top-dose-only effect, or another doubt; inactive means no such curve, though single readings can be large or run the other way; further: series mostly up to about 120 µM
# Target sequence (P11473 whole entry, looked up): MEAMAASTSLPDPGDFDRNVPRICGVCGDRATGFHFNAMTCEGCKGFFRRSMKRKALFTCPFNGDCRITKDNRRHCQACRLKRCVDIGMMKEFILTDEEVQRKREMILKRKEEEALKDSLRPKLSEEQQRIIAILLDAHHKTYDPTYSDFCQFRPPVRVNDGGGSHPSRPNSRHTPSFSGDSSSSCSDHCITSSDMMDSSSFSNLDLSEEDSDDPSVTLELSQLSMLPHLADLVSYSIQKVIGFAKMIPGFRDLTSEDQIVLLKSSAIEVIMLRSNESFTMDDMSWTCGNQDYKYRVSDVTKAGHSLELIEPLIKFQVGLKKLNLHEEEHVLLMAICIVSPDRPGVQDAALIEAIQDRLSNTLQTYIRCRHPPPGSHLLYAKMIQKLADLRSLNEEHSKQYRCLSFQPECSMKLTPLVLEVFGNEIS
#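 FP read-out; VDR + SRC2-3 coactivator peptide; 23 nl compound by pintool; 2 h RT incubation; reagents held at 4 deg C, protected from light.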
# Active calls of the source: *; ? = inconclusive; & = joins results of further samples; [ ] = remark or other dose. On the % scale 0 is the no-effect control and ±100 the full control effect; potency means the concentration at half of the fitted maximal effect. Only part of the results is shown; rates above refer to the full screens.
SMILES,VDR inhibitor
CCc1cccc(CC)c1NC(=S)NCC(c1cccnc1)N(C)C (configuration not stated),6%
COc1ccc(C)cc1Nc1nc(C)nc2sc(C)cc12,?
COc1ccc(OC)c(Nc2nc3ccccc3n3cnnc23)c1,-3%
CC(C)N(Cc1nc(-c2ccc3c(c2)OCO3)no1)CC1CCC(=O)N1 (configuration not stated),4%
Cn1c(NCc2ccccc2)nc2c1c(=O)n(Cc1ccc(Br)cc1)c(=O)n2C,13%
Cc1nn(CC(=O)NCc2cc3ccccc3[nH]2)c(C)c1[N+](=O)[O-],-9%
Cc1ccc(N2CC3=C(C2=O)C(c2ccc(Br)cc2)NC(=O)N3C)cc1 (configuration not stated),4%
Cc1cc(/C=N/NC(=O)c2ccccn2)c(C)n1-c1cccc([N+](=O)[O-])c1,3%
COc1cccc(/C(O)=C2\C(=O)C(=O)N(c3ccccn3)C2c2ccccc2OC)c1 (configuration not stated),5%
O=C(NCCc1ccccc1)c1ccccc1C(=O)NCCc1ccccc1,7%
CC(C)(C)c1ccc(C(=O)NCC(=O)OCC(=O)NC(=O)NC2CCCC2)cc1,3%
CC(=O)c1cc(C#N)c(NCc2cc(-c3ccccc3)no2)nc1C,0%
CS(=O)(=O)N(CC(=O)Nc1cccnc1)c1ccc2c(c1)OCCO2,3%
COc1ccccc1NC(=O)/C=C1\NC(=O)CS1,-11%
Cc1ccc(S(=O)(=O)N2CCN(C(=O)COC(=O)/C=C/c3ccc(Cl)cc3)CC2)c(C)c1,-9%
COc1cc2ccccc2cc1C(=O)Nc1nnc(-c2ccncc2)o1,-23%
CCOC(=O)c1ccc(N2CSC3=C(C#N)C(c4ccc(OC)cc4OC)CC(=O)N3C2)cc1 (configuration not stated),-16%
Cc1ccc(NC(=O)CSc2nc3c(oc4ccccc43)c(=O)n2-c2ccc(F)cc2)c(C)c1,-16%
COc1ccc(CCNC(=O)CCCCCNC(=O)N2CCn3c2nc2ccccc23)cc1OC,-10%
Cc1ccccc1CSCC(=O)c1c(N)n(C)c(=O)n(C)c1=O,-2%
O=C(OCC(=O)N1CCCCCC1)c1ccc(Cl)nc1,-5%
Cc1nn(C)c(C)c1S(=O)(=O)N(CC(=O)NCCc1ccccc1)c1ccc(C(C)C)cc1,-12%
CCC(=NC)C1=C(O)CC(c2ccccc2)CC1=O (configuration not stated),-8%
O=C1NC[C@@H](c2ccccc2)OC(=O)[C@@H](Cc2ccc(F)cc2)CC/C=C/C[C@@H]1CC(=O)N(CCO)Cc1ccccc1,6%
COc1cccc(C=N[C@@H](CO)[C@@H](O)c2ccc([N+](=O)[O-])cc2)c1O,12%
Cc1cc(Br)ccc1SCC(=O)OCC(=O)NC1CCCC1,12%
c1ccc(CSc2nnc(Cc3ccccn3)o2)cc1,-8%
CCOC(=O)[C@H]1[C@H]2COc3ccc(C)cc3[C@@H]2N2C(=O)c3cc(Br)ccc3NC(=O)[C@@]12C,-30%
COc1ccc(N2CC(C(=O)Nc3nnc(SCCC4OCCO4)s3)CC2=O)cc1 (configuration not stated),-4%
CC(C)CCNC(=O)C1CC(c2cccc(F)c2)=NO1 (configuration not stated),-6%
CC(/C=C/c1ccc2c(c1)OCO2)=N/NC(=O)c1cccnc1,9%
CC(C)OCCCNC(=O)CN1C(=O)CSc2ccc(S(=O)(=O)N3CCCCC3)cc21,15%&0%
O=C(Nc1nc2ccc(F)cc2s1)C1CC(=O)N(c2ccc3c(c2)OCCO3)C1 (configuration not stated),-6%
Cc1cc(OCC(=O)NC(C)C)cc(C)c1Cl,-3%
Cc1ccc(CC(=O)Nc2ccccc2-c2ccccc2)cc1C,-5%
O=C(NC1CCCC1)C(c1c[nH]c2ccccc12)N(C(=O)Cn1nnc(-c2ccc(Cl)cc2)n1)c1ccccc1 (configuration not stated),16%

# Some of the entries so far, bar-delimited.
molecule | VDR inhibitor
Cc1ccc(S(=O)(=O)N2CCN(C(=O)COC(=O)/C=C/c3ccc(Cl)cc3)CC2)c(C)c1 | -9%
COc1cc2ccccc2cc1C(=O)Nc1nnc(-c2ccncc2)o1 | -23%
CCOC(=O)c1ccc(N2CSC3=C(C#N)C(c4ccc(OC)cc4OC)CC(=O)N3C2)cc1 (configuration not stated) | -16%
Cc1ccc(NC(=O)CSc2nc3c(oc4ccccc43)c(=O)n2-c2ccc(F)cc2)c(C)c1 | -16%
COc1ccc(CCNC(=O)CCCCCNC(=O)N2CCn3c2nc2ccccc23)cc1OC | -10%
Cc1ccccc1CSCC(=O)c1c(N)n(C)c(=O)n(C)c1=O | -2%
O=C(OCC(=O)N1CCCCCC1)c1ccc(Cl)nc1 | -5%
Cc1nn(C)c(C)c1S(=O)(=O)N(CC(=O)NCCc1ccccc1)c1ccc(C(C)C)cc1 | -12%
CCC(=NC)C1=C(O)CC(c2ccccc2)CC1=O (configuration not stated) | -8%
O=C1NC[C@@H](c2ccccc2)OC(=O)[C@@H](Cc2ccc(F)cc2)CC/C=C/C[C@@H]1CC(=O)N(CCO)Cc1ccccc1 | 6%
COc1cccc(C=N[C@@H](CO)[C@@H](O)c2ccc([N+](=O)[O-])cc2)c1O | 12%
Cc1cc(Br)ccc1SCC(=O)OCC(=O)NC1CCCC1 | 12%
c1ccc(CSc2nnc(Cc3ccccn3)o2)cc1 | -8%
CCOC(=O)[C@H]1[C@H]2COc3ccc(C)cc3[C@@H]2N2C(=O)c3cc(Br)ccc3NC(=O)[C@@]12C | -30%
COc1ccc(N2CC(C(=O)Nc3nnc(SCCC4OCCO4)s3)CC2=O)cc1 (configuration not stated) | -4%
CC(C)CCNC(=O)C1CC(c2cccc(F)c2)=NO1 (configuration not stated) | -6%
CC(/C=C/c1ccc2c(c1)OCO2)=N/NC(=O)c1cccnc1 | 9%
CC(C)OCCCNC(=O)CN1C(=O)CSc2ccc(S(=O)(=O)N3CCCCC3)cc21 | 15%&0%
O=C(Nc1nc2ccc(F)cc2s1)C1CC(=O)N(c2ccc3c(c2)OCCO3)C1 (configuration not stated) | -6%

# Retrieved by structure from above, two records:
SMILES,VDR inhibitor
Cc1ccc(S(=O)(=O)N2CCN(C(=O)COC(=O)/C=C/c3ccc(Cl)cc3)CC2)c(C)c1,-9%
Cc1cc(OCC(=O)NC(C)C)cc(C)c1Cl,-3%

# Next records follow:
SMILES,VDR inhibitor
CC(C)C(O)C1CCN(Cc2nc(Cc3ccccc3Cl)no2)CC1 (configuration not stated),3%
COc1ccc(-c2nc3ccccc3s2)cc1,-7%
O=C(COc1cccnc1[N+](=O)[O-])NCc1ccco1,-20%
COc1c(C)cc(C(=O)C2CCCN(Cc3cccc4nccnc34)C2)cc1C (configuration not stated),-16%
O=C(c1cc2cc([N+](=O)[O-])ccc2s1)N1CCOCC1,10%
COCc1nnc(NC(=O)C2CC(=O)N(c3ccc(C)c(Cl)c3)C2)s1 (configuration not stated),-1%
O=S(=O)(c1cc(Cl)ccc1Br)N1CCCCC1,18%
COCCCN(Cc1ccco1)C(=O)Cn1ncc2c([nH]c3ccccc32)c1=O,8%
Cc1cc(C)c(S(=O)(=O)Nc2ccncc2)cc1C,17%
C=C(C)C(=O)Nc1cccc(C(C)=O)c1,8%
Cc1ccc(OCCOc2ccc(S(=O)(=O)N3CCCC3)cc2C(N)=O)cc1,-12%
CCN(CC)S(=O)(=O)c1ccc(S(=O)(=O)N2CCC(N3CCCCC3)CC2)cc1,6%
Cc1c(-c2nc(-c3ccccc3F)no2)nnn1-c1cc(F)ccc1F,-3%
COc1ccc(/C(C)=N\n2cnnc2)cc1,15%
O=C1CCCC2=C1C(c1cccs1)CC(=O)N2c1ccc(F)cc1 (configuration not stated),-3%
COc1ccc(C(=O)NC(C)Cc2cnccn2)cc1OC1CCN(C(C)C)CC1 (configuration not stated),5%
O=C(Nc1ccnn1C1CCN(Cc2c(F)cccc2Cl)CC1)C1CCCC1,7%
O=C1CSC(c2cccc(F)c2)N1c1ccccc1 (configuration not stated),-14%
CCC1Oc2ccccc2N(CC(=O)NCc2ccc(C)cc2)C1=O (configuration not stated),13%
CCCn1c(SCc2nc(-c3ccccc3C)no2)nnc1-c1ccc(Cl)cc1,13%
Cc1ccnc2c(N3C(=O)C4C5C=CC(C5)C4C3=O)cccc12 (configuration not stated),6%
CCOc1ccc(-c2c(C)sc3nc[nH]c(=O)c23)cc1,-24%
CCOC(=O)C1=C(N)OC2=C(C(=O)CC(C)(C)C2)C1c1ccoc1 (configuration not stated),-1%
Cc1ccc(C(=O)Nc2cccc(C(=O)N3CCOCC3)c2)cc1Cl,-3%
Cc1nn(C(=O)c2ccc(Cl)cc2)c(C)c1S(=O)(=O)N1CCOCC1,-6%
N#Cc1ccsc1NC(=O)C1=COCCO1,12%
COc1cccc(N2CC(NC(=O)c3cc4ccccc4o3)CC2=O)c1 (configuration not stated),7%
CCCCN(C(=O)c1ccc(N(C)S(=O)(=O)c2ccc(C)cc2)cc1)c1c(N)n(CCC)c(=O)[nH]c1=O,24%
C/C(CC(=O)Nc1cc(Cl)ccc1C)=N\NC(N)=O,-12%
Cc1ccc2c(c1)N(CC(=O)NCCCN1CC(C)CC(C)C1)C(=O)c1cccnc1O2 (configuration not stated),-9%
COc1ccc(C(=O)NCCc2sc(-c3ccc(F)cc3)nc2C)cc1OC,12%
CCC(=O)N1CCN(c2ccc(Cl)cc2NC(=O)Cc2ccccc2)CC1,-16%
O=C(CSc1cccc[n+]1[O-])CSc1cccc[n+]1[O-],-8%
CN(C)c1cc[n+](CC(=O)Nc2ccc([N+](=O)[O-])cc2Cl)cc1,-2%
O=C(N/N=C/c1ccncc1)c1cccc(N/N=C/c2ccncc2)c1,21%
C=CCn1c(CCNC(=O)c2ccccc2F)nnc1SCC(=O)Nc1nc2ccccc2s1,32%[activator]
N#C/C(=C(/O)Cc1ccccc1)P(=O)(c1ccccc1)c1ccccc1,-8%
O=C(CSc1nc2ncccc2o1)Nc1ccc(Cl)cc1F,-10%
COc1ccccc1NC(=O)C1=C(C)Nc2ncnn2C1c1ccc(C)o1 (configuration not stated),8%
Cc1ccccc1OCCOC(=O)c1cc(S(=O)(=O)N2CCCCC2)ccc1N1CCOCC1,8%
C=CCC1(O)C(=O)N2C(=C1C(=O)N1CCOCC1)c1ccccc1CC2(C)C (configuration not stated),4%
Cc1ccc(-n2c(C)nnc2SCC(=O)NNC(=O)c2ccco2)cc1,-8%
c1csc(CNc2nc(-c3ccc4c(c3)OCO4)nc3ccccc23)c1,?
CCOc1ccc2[nH]c(=O)c(CN(Cc3ccccc3)C(=O)N3CCCC3)cc2c1,5%
Cc1ccc(SC2=C(C(=O)O)CCCC2)cc1,9%
Cc1cc(C(=O)NCc2nc(-c3ccccc3)no2)ccc1[N+](=O)[O-],-12%
Cc1ccc2c(Cl)cc(Cl)c(OCC(=O)N3CCOCC3)c2n1,-2%
Cc1ccc(S(=O)(=O)C(CNC(=O)c2ccc(F)c(F)c2)c2ccco2)cc1 (configuration not stated),4%
Cc1cccc(-n2ncc3c(NC(C)C)ncnc32)c1,-2%
COc1ccc(NC(=O)CSc2ccc(-c3sc(C)nc3C)nn2)cc1,10%
CCOC1(OCC)N=C(N)C2(C#N)C(c3cccc(OC)c3OC)C12C#N (configuration not stated),8%
O=C(Nn1c(-c2ccncc2)nc2ccccc2c1=O)c1ccc([N+](=O)[O-])cc1Cl,19%
CCOc1ccc(NC(=O)CCNc2c(N3CCCC3)c(=O)c2=O)cc1,-10%
COCCC1CCCCN1C(=O)c1ccc(OC2CCN(C(C)=O)CC2)c(OC)c1 (configuration not stated),-6%
Cc1ccc(SCCc2ccc(C)nc2)cc1,11%
NC(=O)c1c(N)sc2c1CCCCC2,79µM*
CCCNC(=S)NC1CC2CCCC(C1)N2CC(C)C (configuration not stated),5%
O=C(Cn1c(SCc2ccccc2F)nc2cccnc21)Nc1ccc(F)c(Cl)c1,-6%
CCN(CC)S(=O)(=O)c1cccc(C(=O)NCC(=O)OCC(=O)NCc2ccccc2)c1,5%
COc1ccc(N2CCN(C(=O)COC(=O)c3ccc(Cl)nc3)CC2)cc1,7%

# The results go on.
SMILES,VDR inhibitor
CC(=O)n1nc(-c2ccccc2)nc1NCc1cccs1,5%
O=[N+]([O-])c1cc(-c2nc(-c3ccccn3)no2)ccc1NCc1ccccc1,5%
COc1cccc(NC(=O)NC(=O)c2c(C)cc(Cl)nc2Cl)c1,-1%
Cc1nc2ccccc2nc1OCc1ccc([N+](=O)[O-])cc1,6%
CCc1cccc(NC(=O)CCNS(=O)(=O)c2ccc3c(c2)CCN3C(C)=O)c1,1%
Cc1c(Cl)cccc1-n1ncc(C(=O)Nc2ccc(Br)cc2F)c1C1CCNCC1,-2%
CN1CCN(CC(=O)N2CCn3c4c(c5cc(C6CCCCC6)ccc53)CCCC42)CC1 (configuration not stated),4%
COc1ccc(CNC(=O)/C=C/c2ccc(S(=O)(=O)N3CCOCC3)cc2)cc1,-6%
CCOc1ccccc1N1CCN(C(=O)CCCN2C(=O)c3cccc4cccc(c34)C2=O)CC1,4%
O=C(N/N=C\c1ccc(OC(=O)c2cccs2)cc1)c1ccc(Cl)cc1,2%
COCc1cc(=O)[nH]c(SCCS(=O)(=O)c2ccc(Cl)cc2Cl)n1,?
Clc1ccc(OCCCCCN2CCCC2)c(Br)c1,-1%
C=CCN1C(=O)N(c2ccc(F)cc2)C(=O)C1CC(=O)Nc1ccc(Cl)cc1 (configuration not stated),5%
Cc1cc(OCC(=O)OCC(=O)NCc2cccs2)ccc1Cl,2%
Cc1cc(C)cc(NC(=S)NCCCN2CCOCC2)c1,-7%
CCOC(=O)N/N=C/c1cn(Cc2ccc(Cl)cc2)c2ccccc12,-12%
CCN(CC(=O)Nc1ccc2c(c1)OCCO2)CC(=O)Nc1cc(C)on1,-15%
O=S(=O)(NCc1ccc2c(c1)OCO2)c1c(F)cc(F)cc1Br,-1%
Cc1nc2c(C)cccc2cc1C(=O)N/N=C/c1ccc(C(=O)O)cc1,-7%
O=C(CCC1CCCC1)N1CCN(C(=O)c2ccco2)CC1,-6%
CCc1nc2ccc(C(=O)N3CCN(CC)CC3)cc2nc1CC,14%
Clc1ccc(Cl)c(-c2nc(-c3ccncc3)no2)c1,8%
